# High-throughput results from PubChem BioAssay.
# YopH PTP inh = YopH tyrosine phosphatase inhibitors, primary screen, biochemical, fluorescence Ex485/Em525. 140,000 compounds, 0.16% hits. YopH tyrosine phosphatase [Yersinia enterocolitica]. inhibition, %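 (about 10 µM by stock and volumes)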;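 active = inhibition of 50% or more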;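 note: controls were vehicle for no effect and minimum signal wells for full effect; inactives centre near -20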
# Mtb growth = M. tuberculosis H37Rv growth inhibitors, H37Rv strain (AID 1626); M. tuberculosis H37Rv growth inhibition; higher % means a stronger effect; inhibition, % at 10 µM, or IC50 in µM where a hit was titrated; 220,000 compounds, 0.95% hits;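 active = confirmed in a dose series; inconclusive = inhibition above 80% but not taken into the dose series; inactive = below 80% or under 30% at every dose of the series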;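 note: bacteria incubated seven days before Alamar blue readout; 0% = bacteria only wells and 100% = bacteria with antibiotic wells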
# Mtb betalactam = beta-lactam sensitization of Mtb H37Rv, H37Rv | M. tuberculosis H37Rv growth with meropenem, percent inhibition; hits of this screen are not shown here | inhibition, % at 25 µM | 330,000 compounds, 0.27% hits | AID 434955, 2010;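 active = about 74% or more and at least 40 points above the plate without the antibiotic, then above 30% in a dose series; inconclusive = first-round hits that could not be retested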;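 note: growth measured after seven days incubation then overnight dye step; 0% = bacteria only wells and 100% = bacteria with antibiotic; twin plates without the antibiotic show which effects depend on it; some results filed as inactive read as strong as hits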
# RecA intein inh = Mtb RecA intein splicing inhibitors, primary screen, biochemical, fluorescence, HTS; Protein RecA (Mycobacterium tuberculosis (strain ATCC 25618 / H37Rv)), P9WHJ3; cell-free RecA intein splicing; inhibition, %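 (about 9 µM by stock and volumes)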; 290,000 compounds, 0.75% hits; AID 2221, 2009; in the data active = inhibition above about 30%; inconclusive = no clear call, values can overlap the other calls;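 note: 0% = vehicle wells and 100% = reference inhibitor control wells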
# Target sequence (P9WHJ3 whole entry, looked up): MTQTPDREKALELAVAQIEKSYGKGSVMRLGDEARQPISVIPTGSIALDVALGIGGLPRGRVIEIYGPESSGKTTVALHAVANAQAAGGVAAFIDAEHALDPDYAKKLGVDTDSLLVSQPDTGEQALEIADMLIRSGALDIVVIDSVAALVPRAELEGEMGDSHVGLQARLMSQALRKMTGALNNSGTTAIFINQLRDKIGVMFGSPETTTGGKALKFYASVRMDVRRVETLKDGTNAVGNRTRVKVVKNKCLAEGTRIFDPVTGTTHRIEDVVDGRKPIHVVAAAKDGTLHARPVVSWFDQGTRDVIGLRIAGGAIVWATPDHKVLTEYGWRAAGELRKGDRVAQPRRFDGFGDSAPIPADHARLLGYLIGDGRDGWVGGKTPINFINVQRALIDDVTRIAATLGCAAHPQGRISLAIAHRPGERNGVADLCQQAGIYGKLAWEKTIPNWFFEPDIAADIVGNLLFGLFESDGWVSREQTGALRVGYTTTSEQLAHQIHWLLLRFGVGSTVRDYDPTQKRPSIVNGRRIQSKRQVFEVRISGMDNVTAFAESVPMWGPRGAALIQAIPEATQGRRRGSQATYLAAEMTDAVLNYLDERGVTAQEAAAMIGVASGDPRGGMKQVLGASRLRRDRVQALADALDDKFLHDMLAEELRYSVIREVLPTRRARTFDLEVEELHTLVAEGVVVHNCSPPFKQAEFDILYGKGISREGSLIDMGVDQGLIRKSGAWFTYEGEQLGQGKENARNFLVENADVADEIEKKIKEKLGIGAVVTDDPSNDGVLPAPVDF
# Arbovirus inh = antivirals against arbovirus infection, primary screen, cell-based, full library, 10K replicate subset; AID 1251, 2008; 200,000 compounds, 0.37% hits; arbovirus infection cell-based antiviral screen; inhibition, % at 10 µM;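 active = inhibition from about 30%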;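 note: bluetongue infection of BSR cells; cell survival read as ATP light after 72 h; 0% = infected wells without compound and 100% = uninfected wells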
# Arbovirus inh repeat = second read-out of Arbovirus inh, no call of its own (marks repeat the call); inhibition, %; measured here: 10K subset replicate screen; many hits read low in the repeat;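 first of two repeat runs on a subset; 0% = infected and 100% = uninfected wells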
# An asterisk follows results filed as active; ? = inconclusive; nt = no result given.
SMILES,YopH PTP inh,Mtb growth,Mtb betalactam,RecA intein inh,Arbovirus inh,others
CSc1ccc(NC(=O)N2CC(C)OC(C)C2)cc1 (centres undefined),-30,-12%,-7,-2.0,4,
Cc1nn(Cc2c(F)c(F)c(F)c(F)c2F)c(C)c1NC(=O)c1cccc(COc2ccc(Cl)cc2)c1,-26,3%,-1,0.0,1,
Cc1ccc(C)c(Cc2c(C)nc(C)[nH]c2=O)c1,-14,4%,1,2.0,12,
O=C(NCC1CCCO1)C(Cc1ccccc1)N1C(=O)C2C3C=CC(C4CC34)C2C1=O (centres undefined),nt,4%,2,-0.8,-2,
COc1ccc(NC(=O)C(NC(=O)c2ccc(C)cc2)c2ccccc2)cc1 (centres undefined),nt,nt,2,-4.7,nt,
O=S(=O)(NCc1ccccc1)c1cccs1,-9,15%,-5,-1.0,5,
COc1ccc(/C=N/NC(=O)c2ccc(Br)cc2)c(OC)c1,nt,-6%,4,-1.6,-7,
O=C(NC(=S)N1CCCCC1)c1cccnc1,-15,-18%,-5,1.0,-3,
COc1ccc(C(CCc2ccc(C)o2)NC(=O)Nc2ccc(OC)cc2OC)cc1 (centres undefined),-27,-7%,-1,-0.8,8,
COc1ccccc1C(c1c(O)nc(SC)[nH]c1=O)c1c(O)nc(SC)[nH]c1=O,nt,nt,6,-1.0,nt,
CCC(NC(=O)c1ccccc1NC(=O)c1ccc(OC)cc1)C(=O)N1CCCC1 (centres undefined),-25,-5%,-2,1.0,-5,
COC(=O)c1cc(-c2ccc(S(=O)(=O)N3CCCC(C)C3)cc2)c(C(F)(F)F)s1 (centres undefined),nt,nt,0,-1.4,nt,
O=C(NNC(=S)Nc1ccccc1)C1CC1,-31,-8%,1,-3.3,4,
CCOC(=O)c1ccc(NC(=O)c2nn(CC)cc2Br)cc1,-16,2%,95,-1.9,3,
Cc1nn(C)cc1/C=C1\SC(=S)NC1=O,-8,-1%,7,-0.8,-1,
CC1(C)CC(=O)c2cnc(NC(=O)CCc3ccccc3)nc2C1,14,-6%,-9,-0.4,11,Arbovirus inh repeat=4
COc1cccc(N2CCN(C(=O)c3ccc4nc(N5CCCCC5)sc4c3)CC2)c1,-29,5%,1,2.3,-13,Arbovirus inh repeat=0
COC(=O)c1ccc(C(C(=O)NCc2ccccc2)N(Cc2ccco2)C(=O)c2cnccn2)cc1 (centres undefined),-48,1%,-2,8.1,6,
COc1ccc(Nc2cc(C)nc3nc(C)nn23)c(OC)c1,-17,-15%,-5,0.5,-2,Arbovirus inh repeat=0
COc1ccc(CNC2=CC(=O)CC(C)(C)C2)cc1,-44,-4%,2,-1.7,-2,
CCN1C(=O)[C@H]2[C@@H](c3ccc(C)cc3)N3C(=O)N(c4ccc(C(F)(F)F)cc4)C(=O)[C@@]3(CC)[C@H]2C1=O,nt,nt,-13,-1.9,nt,
CCCCOc1ccc(/C=N/NC(=S)Nc2cc(C)ccc2C)cc1,-6,0%,5,1.6,-11,
COc1ccccc1CN1CCCC(C(=O)c2ccccc2OC)C1 (centres undefined),nt,nt,-5,-0.2,nt,
CCOC(=O)C1=C(C)N=C(/N=C/N(C)C)SC1c1ccccc1 (centres undefined),-24,-12%,-2,1.3,4,
CCOC(=O)/C(C#N)=C/C1=C(N2CCOCC2)CC(C)(C)OC1,nt,-8%,0,2.5,nt,
O=C(NNC(=S)NC(=O)c1ccc(F)cc1)c1cccnc1,nt,nt,93,-2.5,nt,
CC(C)C(=O)Nc1ccc(Cc2ccc(NC(=O)C(C)C)c(O)c2)cc1O,-2,-5%,3,0.3,3,
COCc1cc(=O)[nH]c(N2CCN(Cc3ccc4c(c3)OCO4)CC2)n1,nt,nt,6,-1.7,nt,
CC(=O)c1c(C)[nH]c(C(=O)NCCc2ccccc2)c1C,-49,-1%,-13,-4.0,5,
O=C(CSc1ccccc1F)OCC(=O)N1CCN(C(=O)c2ccco2)CC1,nt,nt,-5,-0.5,nt,
COc1cc(NC(=O)C(Cc2ccccc2)n2cccc2)cc(OC)c1 (centres undefined),nt,-5%,93,5.3,nt,
CCCCN(CCCC)C(=S)NC(=O)C(C)(C)C,-24,-2%,3,-0.4,2,
CCC(C)(C)c1nnc(NC(=O)CCC2CCCCC2)s1,nt,nt,-6,1.0,nt,
CCC1C(=O)Nc2ccccc2N1C(=O)COc1ccccc1 (centres undefined),nt,nt,-4,-0.4,nt,
CCC1CN(C(=O)N2CCC(C(=O)NCCc3ccc(OC)c(OC)c3)CC2)c2ccccc2O1 (centres undefined),nt,nt,-4,1.5,nt,
Cn1c(SCc2ccccn2)nc2c1c(=O)[nH]c(=O)n2C,nt,-5%,1,2.8,nt,
C/C(=N\NC(=S)Nc1ccccc1C)c1cc2ccccc2o1,nt,62%,?,-2.4,nt,
CCCCCCCC1(C)NC(=O)N(c2ccccc2)N1 (centres undefined),-9,?,98,4.3,-34,
O=C(O)c1nn(CCOc2cccc(Br)c2)c(=O)c2ccccc12,nt,nt,0,4.6,nt,
CCC1=C(OC(=O)N(CC)CC)N2C(=O)OC(=NCCc3c[nH]c4ccccc34)[C@]2(Cc2ccccc2)[C@H]2C1=CC[C@H]1C(=O)N(C)C(=O)[C@H]12,nt,2%,80,6.5,nt,
Cn1c(O)c(N=Nc2ccc(S(=O)(=O)N3CCOCC3)cc2)c(=O)n(C)c1=O,-34,-7%,6,7.3,15,
O=C(c1cc2ccccc2[nH]1)N(Cc1cccnc1)CC1CCCN(C2CCCCC2)C1 (centres undefined),nt,nt,69,2.4,nt,
CC(C)c1ccc(NC(=O)C2CCCN(S(=O)(=O)c3ccc4c(c3)C(C)(C)C(=O)N4C)C2)cc1 (centres undefined),nt,nt,-12,3.2,nt,
O=C(c1ccc(N2CCCCC2)c([N+](=O)[O-])c1)N(Cc1ccccc1)c1ccccn1,-34,2%,8,11,-7,
C=CCn1c(SCc2ccc3c(c2)OCO3)nc2scc(-c3ccco3)c2c1=O,-1,-6%,-13,6.6,7,
COc1ccc(S(=O)(=O)N2CCC(C)CC2)cc1N(C)S(=O)(=O)c1ccccc1,nt,nt,-3,0.9,nt,
CCOC(=O)c1ccc(NC(=O)CC2C(=O)N(c3ccc(F)cc3)C(=O)N2CCC(C)C)cc1 (centres undefined),-9,20%,79,4.7,-15,
COc1ccc(C(=O)Nc2cccc(-c3ccc(N4CCOCC4)nn3)c2)cc1,nt,nt,11,0.0,nt,
Cc1cc(C(=O)Nn2cnnc2)cs1,-28,-5%,1,3.5,12,
COC(=O)c1cccc(N2C(=O)C(Cl)=C(N3CCOCC3)C2=O)c1,-51,5%,97,68*,13,
CCn1c(SCC(N)=O)nnc1-c1ccco1,5,-8%,-3,1.5,5,
O=C(CSc1ccccc1C(=O)NCc1ccccc1)NC12CC3CC(CC(C3)C1)C2,-8,-3%,4,-0.2,1,
CCOC(=O)c1sc2nc(C3CC3)cc(-c3ccc(OC)cc3)c2c1N,-33,-5%,-8,-59,0,
CC(=O)C1=C(O)C(=O)N(Cc2cccnc2)C1c1ccc(C)cc1 (centres undefined),-27,-2%,nt,-1.0,0,
CCCC(=O)OC(C(=O)Nc1cc(C(F)(F)F)ccc1Cl)c1ccccc1 (centres undefined),1,9%,0,2.6,8,
Nc1nc(SCC(=O)c2cc(F)ccc2F)n[nH]1,nt,7%,8,0.7,-2,
Cc1ccc(CNC(=O)CN(C(=O)N2CCN(C)CC2)S(=O)(=O)c2ccc(C)cc2)cc1,nt,nt,-3,-0.8,nt,
Clc1cc(Sc2ccc(Br)cc2)nnc1-c1ccccc1,13,17%,-3,11,-26,
O=C(c1ccc(-n2cncn2)c([N+](=O)[O-])c1)N1CCN(S(=O)(=O)c2ccc(Cl)cc2)CC1,nt,nt,-6,-6.1,nt,
O=P(OC1CCCCC1)(OC1CCCCC1)C(O)c1ccccc1 (centres undefined),-5,0%,-8,1.5,0,

# Sorted by molar mass (smallest number first): 16 of the compounds above
SMILES,YopH PTP inh,Mtb growth,Mtb betalactam,RecA intein inh,Arbovirus inh,others
Cc1cc(C(=O)Nn2cnnc2)cs1,-28,-5%,1,3.5,12,
CCn1c(SCC(N)=O)nnc1-c1ccco1,5,-8%,-3,1.5,5,
Nc1nc(SCC(=O)c2cc(F)ccc2F)n[nH]1,nt,7%,8,0.7,-2,
CC(=O)C1=C(O)C(=O)N(Cc2cccnc2)C1c1ccc(C)cc1 (centres undefined),-27,-2%,nt,-1.0,0,
COC(=O)c1cccc(N2C(=O)C(Cl)=C(N3CCOCC3)C2=O)c1,-51,5%,97,68*,13,
O=P(OC1CCCCC1)(OC1CCCCC1)C(O)c1ccccc1 (centres undefined),-5,0%,-8,1.5,0,
Clc1cc(Sc2ccc(Br)cc2)nnc1-c1ccccc1,13,17%,-3,11,-26,
COc1ccc(C(=O)Nc2cccc(-c3ccc(N4CCOCC4)nn3)c2)cc1,nt,nt,11,0.0,nt,
CCCC(=O)OC(C(=O)Nc1cc(C(F)(F)F)ccc1Cl)c1ccccc1 (centres undefined),1,9%,0,2.6,8,
Cn1c(O)c(N=Nc2ccc(S(=O)(=O)N3CCOCC3)cc2)c(=O)n(C)c1=O,-34,-7%,6,7.3,15,
O=C(c1ccc(N2CCCCC2)c([N+](=O)[O-])c1)N(Cc1ccccc1)c1ccccn1,-34,2%,8,11,-7,
C=CCn1c(SCc2ccc3c(c2)OCO3)nc2scc(-c3ccco3)c2c1=O,-1,-6%,-13,6.6,7,
O=C(c1cc2ccccc2[nH]1)N(Cc1cccnc1)CC1CCCN(C2CCCCC2)C1 (centres undefined),nt,nt,69,2.4,nt,
COc1ccc(S(=O)(=O)N2CCC(C)CC2)cc1N(C)S(=O)(=O)c1ccccc1,nt,nt,-3,0.9,nt,
Cc1ccc(CNC(=O)CN(C(=O)N2CCN(C)CC2)S(=O)(=O)c2ccc(C)cc2)cc1,nt,nt,-3,-0.8,nt,
CC(C)c1ccc(NC(=O)C2CCCN(S(=O)(=O)c3ccc4c(c3)C(C)(C)C(=O)N4C)C2)cc1 (centres undefined),nt,nt,-12,3.2,nt,

# The main list resumes; the 2 compounds before the break are reprinted first.
SMILES,YopH PTP inh,Mtb growth,Mtb betalactam,RecA intein inh,Arbovirus inh,others
O=C(c1ccc(-n2cncn2)c([N+](=O)[O-])c1)N1CCN(S(=O)(=O)c2ccc(Cl)cc2)CC1,nt,nt,-6,-6.1,nt,
O=P(OC1CCCCC1)(OC1CCCCC1)C(O)c1ccccc1 (centres undefined),-5,0%,-8,1.5,0,
O=C(CSc1nnc2c(Cl)cc(Cl)cn12)N1CCOCC1,-5,-2%,-10,-6.2,0,
Cc1ccc(NC(=O)/C(C#N)=C/c2cn(CC(=O)NCc3ccco3)c3ccccc23)cc1C,nt,-1%,-7,-25,-9,
c1ccc(-n2c(SCc3nc(-c4cccs4)no3)nnc2-c2ccco2)cc1,-32,5%,1,0.1,15,
CC(NC(=O)CCNC(=O)c1ccc(Br)cc1)c1ccc(-n2ccnc2)cc1 (centres undefined),nt,nt,-5,0.7,nt,
CCOC(=O)CCNC(=O)N1CCCC(Cc2ccccc2)(C(=O)OCC)C1 (centres undefined),nt,nt,-2,-2.8,nt,
CCC(=O)Nc1ccc(S(=O)(=O)N2CCc3ccccc32)cc1,nt,nt,-2,-0.4,nt,
COc1cc(/C=N/Nc2ccccn2)cc(OC)c1O,nt,9%,-1,nt,-21,
COc1ccc(S(=O)(=O)Nc2cc(C)nn2-c2ccccc2)cc1,-28,6%,3,1.8,0,
N/C(=N\OC(=O)C1CCCCC1)c1cccc(Br)c1,nt,nt,91,2.3,nt,
O=C(O)c1ccc(N=Nc2c(O)[nH]c3cc(Cl)ccc23)cc1,nt,6%,73,2.5,nt,
S=C(NC1CCCCC1)NN(c1ccccc1)c1ccccc1,-14,12%,1,1.6,-11,
CN(/N=C/c1cccc(Br)c1)C1=NS(=O)(=O)c2ccccc21,nt,nt,2,-3.4,nt,
CCOc1ncccc1C(=O)NCc1ccc(OC)c(OC)c1,-40,-5%,15,-0.8,-1,
Cc1cc(N(CCCl)CCCl)ccc1/C=N/NC(=O)c1ccco1,-34,nt,11,-3.6,-34,

# The list is partial, so the mix of outcomes need not match the whole.
